Mtb hypoxia inh – Mtb hypoxia fluorescent reporter inhibition; M. tuberculosis hypoxia-regulated fluorescent reporter, fluorescence; fluorescence inhibition, % (concentration not given with the values); 300,000 tested, 0.1% active; AID 1159583;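 active = 35 to 45% if threefold the growth effect, above 45% if 1.5-fold the growth effect; inactive = the rest, general growth blockers included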;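 also: wells of about 50 µL received 100 nL stock; 0% = vehicle wells and 100% = reference inhibitor wells; whole bacteria with a GFP reporter of the hypoxia response; strong numbers were not always called active; many hits fall short of the cut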
Sa RN4220 lethal – S. aureus RN4220 growth inhibition | OD600, 16 h | inhibition, % (no concentration beside the values) | 330,000 tested, 0.33% active | AID 1259311;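 active = z-score of -3 or lower and OD600 up to 0.18 on both plates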;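 also: plate controls were untreated cells for no effect and reference antibiotic for full effect; stock transfer was 100 nL into about 80 µL; one replicate is shown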
PrP 5UTR inh – suppresses PrP 5' UTR mRNA reporter expression; cell-based PrP 5' UTR mRNA reporter, plate reader; inhibition, % (no concentration beside the values); 340,000 tested, 0.35% active; AID 488862;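 active = every replicate at 50% or more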;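 also: 0 = median of the neutral control wells; tested in H4 reporter cells; numbers are from one replicate; inactives centre near -14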
Bead autofluor – flagged as autofluorescent in microsphere protease counterscreen; fluorescence intensity (test concentration not listed); compound autofluorescence counterscreen, microsphere flow cytometry; stronger effect = higher value; 360,000 tested, 3.1% active; AID 624483;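 active = at least 3 SD above the mean of all compounds, about 16000 in these data; inconclusive = too few beads counted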;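 also: 100 nL of 1 mM stock went into each well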
BJeLR viability – kills HRASV12-expressing BJeLR cells; inhibition, % (test concentration not listed); BJeLR (HRASV12) viability, CellTiter-Glo ATP luminescence, 48 h; reference of the scale not given here; 300,000 tested, 0.17% active;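 active = replicate mean above 50%; inconclusive = above 50% but judged a plate artefact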;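 also: 50 nL library stock added to about 25 µL; numbers are from one replicate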
Sa ugtP lethal – compounds lethal to S. aureus RN4220 ugtP deletion mutant. OD600 growth, 16 h; some inactives read as strong as hits. 330,000 tested, 0.54% active. growth inhibition, % (concentration not given with the values). AID 1259309;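 active = z-score under -3 and OD600 up to 0.15 on both plates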;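 also: plate controls were untreated wells for no effect and antibiotic for full effect; wells of about 80 µL received 100 nL stock; the first replicate is given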
Mtb hypoxia inh growth – recorded beside Mtb hypoxia inh, whose call it bears; growth inhibition, %; measured here: M. tuberculosis growth (absorbance);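 0% = vehicle and 100% = reference antibiotic; read after six days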
Numbers without * were called inactive; u = inconclusive; x = not tested or not shown.

SMILES | Mtb hypoxia inh | Mtb hypoxia inh growth | Sa RN4220 lethal | PrP 5UTR inh | Bead autofluor | BJeLR viability | Sa ugtP lethal
COc1ccccc1N(Cc1ccccc1)S(=O)(=O)c1cccc(C(=O)Nc2cc(C)ccn2)c1 | -4 | -11 | 3.0 | 25 | u | 10 | -4
Cc1cc2cc(CNC(=O)Nc3cccc(Cl)c3)ccc2n1C | 5 | 1 | 3.2 | -29 | 1277 | -4 | 9
C[C@H](NC(=O)[C@H](Cc1ccccc1)n1c(=O)[nH]c2ccccc2c1=O)C(=O)N1CCC[C@H]1C(=O)O | x | x | -0.6 | -2 | 4322 | 10 | 5
CC1(C)CC(NC(=O)C(F)(F)F)CC(C)(C)N1OC(=O)c1ccco1 | 3 | 2 | 6.9 | -4 | 4106 | -9 | 15
C=CCNC(=S)N(Cc1ccccc1)Cc1ccc(F)cc1 | -7 | 11 | -0.4 | -5 | 4391 | 0 | 1
COc1cc(C=NNc2cccc(C)c2)ccc1OC(=O)c1ccco1 | 7 | 6 | 8.3 | x | x | x | 6
CC(Sc1nnc(-c2cccs2)n1-c1ccccc1)C(=O)NCc1ccc2c(c1)OCO2 (configuration not stated) | x | x | -1.4 | -13 | 2115 | 3 | -6
O=C(NN=Cc1cc2c(cc1Cl)OCO2)c1ccccn1 | -4 | 0 | 6.8 | x | x | x | 0
Cc1ccc(NC(=O)CSCC(=O)N2CCCc3ccccc32)cc1 | 9 | 6 | 2.4 | -17 | u | -2 | -1
Cn1c(-c2ccccc2)cnc1NCc1cc(Cl)ccc1O | 4 | 4 | 0.5 | -44 | 2838 | 5 | 8
OCCN1CCN(CCC=C2c3ccccc3Sc3ccc(Cl)cc32)CC1 | 18 | 7 | -3.5 | x | x | x | -12
CC(=O)ON=Cc1c(N2CCOCC2)n(C)c2ccccc12 | x | x | -7.4 | x | x | x | 4
Cc1cc(OC(C)C(=O)NCc2ccncc2)c2c3c(c(=O)oc2c1)CCC3 (configuration not stated) | 11 | 0 | -1.6 | -25 | 6530 | 2 | 11
Cc1[nH]n(-c2ccccc2)c(=O)c1C=Nc1ccc2[nH]c(=O)[nH]c2c1 | x | x | x | 1 | 6998 | -4 | x
COc1cccc(C(=O)Nc2nc(-c3ccccc3)c(-c3ccccc3)o2)c1 | -10 | -2 | 40 | -14 | 2318 | -7 | 16
CC(C)S(=O)(=O)c1csc(C(=O)NNC(=O)Nc2ccccc2)c1Cl | -15 | -1 | -0.7 | -12 | 5921 | -18 | -5
COc1cccc(NC(=O)CN(C)C(=O)CCCc2c[nH]c3ccccc23)c1 | 6 | 5 | -2.4 | -12 | 3653 | x | 3
Cc1ccc(C)c(NC(=O)CCC(=O)OC(C(=O)c2ccccc2)c2ccccc2)c1 (configuration not stated) | 13 | 9 | 3.8 | -24 | 15572 | 0 | 10
CCOC(=O)C1CCN(C(=O)c2ccc3c(=O)n4nc(Nc5cc(C)ccc5C)sc4nc3c2)CC1 | -9 | -2 | 0.6 | 7 | 4486 | 12 | 0
Cn1c(=O)cc(SCC(=O)N2CCN(Cc3ccc4c(c3)OCO4)CC2)c2ccccc21 | 1 | 0 | 3.3 | -23 | 3542 | -11 | -1
CC(=O)c1cccc(NC(=O)Oc2ccccc2)c1 | 14 | -1 | -1.4 | -7 | 5247 | -1 | 9
CC(=O)c1cccc(NC(=O)C2CCCN(S(=O)(=O)c3ccc(F)cc3)C2)c1 (configuration not stated) | -5 | 11 | 12 | -13 | 2445 | 0 | -4
Cc1ccc2c(c1)N(CCCC(=O)NCC1COc3ccccc3O1)C(=O)CO2 (configuration not stated) | 15 | 6 | -2.3 | -28 | 14037 | -12 | 1
CC(C)c1ccc(/C=C2\CC/C(=C\C=N\N(C)C)C2=O)cc1 | x | x | x | -8 | 8046 | 5 | x
Cc1cccc(-c2nnc(SCC(=O)NC3CCCC3)o2)c1 | -2 | 0 | 3.8 | -20 | 5580 | -8 | 1
CCOC(=O)C1CCCN(Cc2cc(Br)ccc2OC)C1 (configuration not stated) | 7 | 6 | 3.5 | -28 | 8933 | x | 0
O=C(NCCc1ccc(Cl)cc1)c1ccc2c(c1)OCO2 | 25 | 13 | 2.2 | -76 | 4855 | -14 | 8
COc1ccc(-c2cnc(N)nc2-c2ccc(OCc3ccccc3)cc2O)cc1 | 4 | 5 | -9.0 | 0 | 4623 | 1 | 10
CC(C)(C)n1nnnc1C(c1cccs1)N(Cc1cccnc1)CC1CCCO1 (configuration not stated) | 9 | 6 | 8.0 | -17 | 3509 | -3 | 7
COc1cc(C(=O)OCC(=O)Nc2ccc(S(=O)(=O)N3CCCC3)cc2)cc(OC)c1OC | 5 | 6 | 0.9 | -9 | 3901 | x | -2
O=C(CN1CCN(c2ccc(O)cc2)CC1)Nc1ccc2c(c1)OCCCO2 | 8 | 8 | 7.0 | -27 | 3523 | x | -3
O=C(Nc1ccccc1F)C1CCN(S(=O)(=O)c2cccnc2)CC1 | 9 | 5 | 3.2 | -6 | 4719 | 5 | 17
COC(=O)c1cc(NC(=O)c2cc(-c3ccc(Cl)cc3)oc2C(F)(F)F)ccc1N1CCOCC1 | -27 | 3 | 19 | -7 | 4368 | 1 | -20
CCOC(=O)C1CCCN(C/C(O)=C(\C#N)c2nc(-c3ccc(Cl)cc3)cs2)C1 (configuration not stated) | x | x | x | -17 | 6319 | 5 | x
CCOC(=O)c1c(NC(=O)NC(C)(C)C)sc2c1CCN(C)C2 | 1 | -2 | 1.5 | -36 | 3956 | -3 | 2
Cc1ccc2oc(-c3cccc(NC(=O)c4ccc(Br)o4)c3C)nc2c1 | 4 | 5 | 14 | -20 | 3347 | 8 | -10
CC(C)(C)Nc1nc(Cl)nc(Nc2ccccc2)n1 | 2 | 8 | -1.8 | -95 | 3690 | 17 | -4
COc1ccc(NC(=O)CN(C)C(=O)c2ccc(NS(=O)(=O)c3ccc4[nH]c(=O)[nH]c4c3)cc2)cc1 | x | x | x | 1 | 6356 | -2 | x
CCc1nnc(SCc2ccc([N+](=O)[O-])cc2)nc1CC | 8 | 5 | 8.2 | -13 | 3529 | -6 | 6
COc1ccc(C(=O)C[n+]2ccc(-c3nnc4n3CCC4)cc2)cc1 | -8 | -6 | 4.4 | -14 | 1959 | -3 | 1
Cc1ccccc1C(C(=O)NC1CCCCC1)N(C(=O)CNC(=O)c1ccco1)c1cccnc1 (configuration not stated) | 8 | -3 | 4.7 | -6 | 4629 | -3 | 2
COc1ccc(S(=O)(=O)N2CCCCCC2)cc1C(=O)Nc1cc(C)ccn1 | 7 | 11 | 26 | -17 | 3913 | x | 5
COc1ccc(OC)c(S(=O)(=O)N2CCN(C34CC5CC(CC(C5)C3)C4)CC2)c1 | 7 | 7 | 0.6 | -15 | 3391 | -7 | -2
COc1cccc(NC(=O)c2cccc(C(=O)Nc3cccc(OC)c3)n2)c1 | 5 | 4 | -0.5 | -9 | 6169 | 0 | -9
COc1cccc(/C=N/Nc2ccccc2C(=O)O)c1O | x | x | x | -43 | 3393 | -7 | x
O=C1CCC(Cc2ccccc2)N1 (configuration not stated) | 6 | 2 | 1.0 | -21 | 9454 | 12 | 5
CC1CC(C)CN(C(=O)COC(=O)c2ccc(N3CCCC3=O)cc2)C1 (configuration not stated) | 5 | 16 | 3.4 | -10 | 3670 | x | 3
CC1CCCCN1C(=O)c1ccc(C(=O)N2CCCCC2C)cc1 (configuration not stated) | 1 | 10 | 2.3 | 0 | 21133* | -1 | 1
CCOc1cccc2cc(C(=O)NCc3ccc(F)cc3)c(=N)oc12 | 1 | 0 | 3.8 | -2 | 6374 | 4 | -4
CCCc1cc(C(=O)NCC(C)C)no1 | x | x | 4.5 | 4 | 4524 | 5 | 0
Cc1cccc(NC(=O)c2ccc(CN3CCc4ccccc4C3)cc2)c1C | 12 | 4 | -0.1 | -49 | 2548 | -1 | 11
CC1CCCN(CCSc2ccc(Cl)cc2)C1 (configuration not stated) | 15 | 11 | 6.7 | -13 | 2629 | -11 | 5
CC(=O)c1ccc(NS(=O)(=O)c2ccc(C)cc2)cc1 | x | x | -4.7 | -2 | 4801 | -6 | 1
NC(=O)c1ccccc1NCC(=O)c1ccc(Cl)cc1 | 6 | -3 | 0.1 | -8 | 4292 | 4 | 12
CCOC(=O)CSc1cc(C)nc(N)n1 | 1 | 10 | 6.2 | -20 | 6777 | -16 | 4
COc1cc([N+](=O)[O-])ccc1NC(=O)CCN1C(=O)C2C3CCC(C3)C2C1=O (configuration not stated) | 1 | 1 | -0.1 | -15 | 8975 | -3 | 8
COc1ccc(N2CCN(CCNC(=O)CCCn3c(=O)[nH]c4cc(Cl)ccc4c3=O)CC2)cc1 | x | x | 0.6 | -2 | 2499 | 1 | 5
O=c1oc(-c2ccccc2NS(=O)(=O)c2ccc(F)cc2)nc2ccccc12 | -6 | 8 | 1.5 | -19 | 4158 | -1 | -6
COc1cccc(NC(=O)CN(C)C(=O)c2ccc3c(c2)C(=O)N(CCC(C)C)C3=O)c1 | -1 | -2 | 0.4 | -13 | 3014 | x | -3
COCCN(C(=O)CNC(=O)c1cccs1)C(C(=O)NC1CCCCC1)c1ccco1 (configuration not stated) | x | x | -2.4 | -34 | 4289 | x | 3

Reprinted from above for reference:
SMILES | Mtb hypoxia inh | Mtb hypoxia inh growth | Sa RN4220 lethal | PrP 5UTR inh | Bead autofluor | BJeLR viability | Sa ugtP lethal
CCCc1cc(C(=O)NCC(C)C)no1 | x | x | 4.5 | 4 | 4524 | 5 | 0
Cc1cccc(NC(=O)c2ccc(CN3CCc4ccccc4C3)cc2)c1C | 12 | 4 | -0.1 | -49 | 2548 | -1 | 11
CC1CCCN(CCSc2ccc(Cl)cc2)C1 (configuration not stated) | 15 | 11 | 6.7 | -13 | 2629 | -11 | 5
CC(=O)c1ccc(NS(=O)(=O)c2ccc(C)cc2)cc1 | x | x | -4.7 | -2 | 4801 | -6 | 1

Additional structures.
SMILES | Mtb hypoxia inh | Mtb hypoxia inh growth | Sa RN4220 lethal | PrP 5UTR inh | Bead autofluor | BJeLR viability | Sa ugtP lethal
CCOc1ccc(CNCCCSc2ncccn2)cc1 | -10 | -1 | 2.7 | -4 | 3899 | -4 | 1
CC(C)[C@H](NC(=O)c1ccco1)C(=O)OCC(=O)Nc1cccc(F)c1 | 12 | 11 | 4.5 | -9 | 4061 | 14 | 10
COc1ccc(C(NC(C)=O)c2ccc3cccnc3c2O)c(OC)c1 (configuration not stated) | x | x | 4.1 | 41 | 2532 | 6 | -8
Cc1cc(NS(=O)(=O)c2ccc(NC(=O)CCCC(=O)O)cc2)nc(C)n1 | 6 | 8 | -10 | -11 | 3107 | 9 | -2
CCCC1(C(=O)O)NC(c2ccccc2O)C2C(=O)N(c3cccc(Cl)c3)C(=O)C21 (configuration not stated) | x | x | 2.9 | -37 | 5438 | 1 | 6
CC(C)CCNC(=O)CNC(=O)c1cccs1 | 6 | 8 | 2.5 | -21 | 11665 | 3 | 8
COc1ccccc1CN(Cc1cc2c(C)ccc(C)c2[nH]c1=O)Cc1nnnn1Cc1ccco1 | -1 | -4 | 0.7 | -10 | 2989 | -4 | -14
NC(=O)c1ccsc1NC(=O)CN1C(=O)NC2(CCCC2)C1=O | -9 | 19 | 2.6 | -7 | 4160 | x | 2
O=C(OCc1nc2scc(-c3ccccc3)c2c(=O)[nH]1)c1cc(Cl)ccc1[N+](=O)[O-] | 12 | 1 | 6.5 | -1 | 2040 | -14 | -6
S=C(NCCc1ccccc1)N1CCN(Cc2ccc(Cl)c(Cl)c2)CC1 | -3 | 7 | -5.4 | 1 | 2641 | 5 | -4
COc1cccc(C(=O)CSc2nnc(-c3cc(OC)cc(OC)c3)o2)c1 | -1 | 0 | 6.8 | -27 | 8783 | -14 | -4
Cc1cc(C)n(C(=O)CSc2nnc(SCC(=O)n3nc(C)cc3C)s2)n1 | 9 | 5 | -13 | -12 | 2858 | -5 | -5
CC(c1ccccc1)C1CC(=O)N(c2ccc(C(=O)O)cc2)C1=O (configuration not stated) | 12 | -2 | 3.4 | -11 | 10971 | -3 | 9
COc1ccc(Cl)cc1NC(=O)CSc1nnc(C2CC2)n1C | 9 | -7 | 2.8 | -6 | 5858 | -3 | 12
Cc1ccc(-n2c(CCc3ccccc3)n[nH]c2=S)cc1C | 10 | -4 | 6.1 | -60 | x | -5 | 13
Cc1ccc(-c2nc3cnccn3c2Nc2ccccc2)o1 | -1 | 3 | 5.3 | -33 | 5522 | 1 | 3
Cc1ccsc1C=NN1CCN(c2ccccn2)CC1 | 16 | 9 | 3.7 | x | x | x | 16
